Assay outcomes: PubChem, National Center for Advancing Translational Sciences (NCATS)
VACV Venus inh = vaccinia inhibition (Venus reporter) | Vaccinia virus Venus reporter expression, fluorescence | Potency, µM (top dose mostly 36.5 µM), inactives show at the highest dose activity change, negative = inhibition, most hits filed as inhibitors | 330,000 compounds, 0.46% hits | AID 720580; active means well fitted inhibition curve with a large enough effect; inconclusive means small, poorly fitted or top-dose-only effect; inactive means no such curve, though single readings can be large or run the other way; tested in A549 cells; note: nearly all actives have a fitted effect of over 30% in size; inactives centre near -10
Vaccinia mCherry = inhibitors of vaccinia virus infection (mCherry reporter signal); 310,000 compounds, 0.63% hits; AID 720579; Potency, µM (series often up to 36.5 µM), without a hit: at the top dose activity change, negative = inhibition, most hits filed as inhibitors; Vaccinia virus mCherry reporter infection, fluorescence; about a quarter of the inactives have no number; active = well fitted inhibition curve with a large enough effect; inconclusive = small, poorly fitted or top-dose-only effect; inactive = no such curve, though single readings can be large or run the other way; tested in A549 cells; note: nearly all actives have a fitted effect of over 35% in size; inactives centre near -10
* marks the source's active call; other numbers are inactive results; [ ] = remark or other dose. % is set by controls: 0 for no effect and ±100 for the full control effect; potency is the fitted concentration of half-maximal effect.

CC(C)N1CCN(Cc2nc(-c3ccccc3)cs2)CC1CCO (centres undefined) was read as VACV Venus inh -15% and Vaccinia mCherry -6%.
Screening CCn1c(SCC(=O)N(C)C)nc2cc(S(=O)(=O)N3CCCCC3)ccc21 returned VACV Venus inh -6% and Vaccinia mCherry inactive.
Screening Cc1cccc(C)c1OCCCn1c(CCNC(=O)C2CCCCC2)nc2ccccc21 returned VACV Venus inh -23% and Vaccinia mCherry -14%.
COc1cc(CN2C(=O)CC[C@@H]3CN(Cc4ccccn4)CC[C@@H]32)cc(OC)c1OC was read as VACV Venus inh 1% and Vaccinia mCherry -7%.
Screening Cc1cccc([C@@H]2[C@@H]3C(=O)N(Cc4ccccc4)C(=O)[C@@H]3[C@]3(C)C(=O)N(c4ccc(Br)cc4)C(=O)N23)c1 returned VACV Venus inh -22% and Vaccinia mCherry inactive.
CC(Oc1ccccc1F)C(=O)NCCN1CCCCC1 (centres undefined) was read as VACV Venus inh -17%.
Cn1cnc([N+](=O)[O-])c1SCC(O)CN1CCCCC1 (centres undefined) was read as VACV Venus inh -3% and Vaccinia mCherry inactive.
O=C(Nc1ccc(N2CCN(C(=O)c3ccco3)CC2)cc1)C(c1ccccc1)c1ccccc1 was read as VACV Venus inh -11% and Vaccinia mCherry -27%.
Screening CCOC(=O)C1Cn2c(nc3c(c2=O)C(C)(C)Cc2ccccc2-3)S1 (centres undefined) returned VACV Venus inh -19% and Vaccinia mCherry inconclusive.
Cc1ccc(S(=O)(=O)CCC(=O)N(C)c2c(N)n(Cc3ccccc3)c(=O)[nH]c2=O)cc1 was read as VACV Venus inh -19% and Vaccinia mCherry -17%.
For COc1ccc(Cc2nc3ccc(C(=O)NCc4cc(C)no4)cc3o2)cc1 the results were VACV Venus inh -12% and Vaccinia mCherry inactive.
Screening CC(=O)Nc1ccc(NC(=O)C2CCN(C(=O)NC3CCCCC3)CC2)cc1 returned VACV Venus inh -3% and Vaccinia mCherry inactive.
COCCCNC(=S)N/N=C/c1ccc2ccccc2c1 was read as VACV Venus inh -20% and Vaccinia mCherry -4%.
`COc1ccc(-n2cc(C(=O)c3ccccc3O)cn2)cc1` gave VACV Venus inh -7% and Vaccinia mCherry -10%.
For Cc1ccc2c(c1)CC1(CN2C)C(=O)NC(=O)N(c2ccccc2C)C1=O (centres undefined) the results were VACV Venus inh -1% and Vaccinia mCherry -15%.
Screening CCN(CC)CCCN(C(=O)c1ccc(Br)cc1)c1nc(-c2ccc(OC)cc2)cs1 returned VACV Venus inh -17% and Vaccinia mCherry inconclusive.
`CC(=O)NCCc1nc2ccccc2n1CCOc1ccc(C)cc1` gave VACV Venus inh -2% and Vaccinia mCherry -9%.
Cc1cc(C)nc(NC2=NCC(=O)N2c2cc(Cl)cc(Cl)c2)n1 was read as VACV Venus inh 3% and Vaccinia mCherry -6%.
`CNC(=O)c1cc(Nc2nnc(C)c3ccccc23)ccc1OC` gave VACV Venus inh -17% and Vaccinia mCherry -15%.
`OC[C@@H]1CN(Cc2ccc(F)cc2)C[C@H](n2cnc3c(NC4CCCC4)ncnc32)O1` gave VACV Venus inh -2% and Vaccinia mCherry -7%.
Screening COc1nc(Nc2cccc(C)c2)nc(N2CCCCC2)n1 returned VACV Venus inh -18% and Vaccinia mCherry -18%.
For CCOc1ccc(CCNC(=O)CN2C(=O)CCSc3ccccc32)cc1OCC the results were VACV Venus inh 2% and Vaccinia mCherry -5%.
For CN1CCc2c(sc3c2c(=O)n(-c2ccccc2)c2nncn32)C1 the results were VACV Venus inh -1% and Vaccinia mCherry -15%[1.46 µM].
`Cc1cccc(NC(=S)NCCc2ccc3c(c2)OCCO3)c1C` gave VACV Venus inh -3% and Vaccinia mCherry -16%.
CC(=O)Nc1ccc(OCc2nnc(-c3ccccc3)o2)cc1 was read as VACV Venus inh 0% and Vaccinia mCherry -14%.
For COC(=O)c1cc(NC(=O)CN2CCc3cc4c(cc3C2)OCCCO4)cc(C(=O)OC)c1 the results were VACV Venus inh inconclusive and Vaccinia mCherry inconclusive.
`CCN(C(=O)C1CCN(c2nc(-c3ccc(OC)cc3)no2)CC1)c1ccccc1` gave VACV Venus inh inconclusive and Vaccinia mCherry -21%.
COC(=O)c1ccc(C23CC4(C2)[C@H](CN(CC2CCCCC2)[C@@H]4c2ccccc2)C3c2ccccc2)cc1 (some centres undefined) was read as VACV Venus inh -10% and Vaccinia mCherry inactive.
Screening Cc1ccsc1C(=O)Nc1ccc2c(c1)OCCO2 returned VACV Venus inh -4% and Vaccinia mCherry -17%.
For Cc1nc(N2CCN(c3ccccn3)CC2)c2c(C)c(C(=O)N3CCN(c4ccccc4F)CC3)sc2n1 the results were VACV Venus inh -21% and Vaccinia mCherry -26%.
`Cc1ccc(C(=O)c2sc3nc4c(cc3c2N)CCC4)cc1` gave VACV Venus inh -16% and Vaccinia mCherry -16%.
`CC(C)Oc1cc(C(=O)N2CCC(N3CCCCC3)CC2)ccc1Nc1nnc(Cl)c(Nc2ccccc2S(C)(=O)=O)n1` gave VACV Venus inh -17% and Vaccinia mCherry -23%.
For CCCNC(=O)c1ccccc1NS(=O)(=O)c1ccc2c(c1)OCCO2 the results were VACV Venus inh -8% and Vaccinia mCherry -13%.
For CCC(C)NC(=O)C(=O)Nc1c2c(nn1-c1ccccc1)CS(=O)(=O)C2 (centres undefined) the results were VACV Venus inh -12% and Vaccinia mCherry -8%.
`Cc1ccc(Sc2ncccc2NC(=O)c2ccccc2Cl)cc1` gave VACV Venus inh -10% and Vaccinia mCherry -8%.
For c1ccc(CC2CCN(c3nc4ccccc4n4nnnc34)CC2)cc1 the results were VACV Venus inh -8%.
For Cn1c2c(c(=O)n(C)c1=O)C(C(F)(F)F)(C(F)(F)F)N=C(CCC1CCCCC1)N2 the results were VACV Venus inh inconclusive and Vaccinia mCherry inconclusive.
Screening CCc1cccc(OCCCn2ccnc2)c1 returned VACV Venus inh 0% and Vaccinia mCherry -7%.
For O=C(NCc1nc2ccccc2[nH]1)C1=C[C@@H](C2CC2)C[C@@H](OCc2ccc(CO)cc2)O1 the results were VACV Venus inh -8% and Vaccinia mCherry inactive.
For Cn1c(SCc2ccc(Br)cc2)nc2c([nH]c3ccccc32)c1=O the results were VACV Venus inh -4% and Vaccinia mCherry -12%.
`COc1ccc(N(CC(=O)Nc2ccccc2C(F)(F)F)C2=NC3CS(=O)(=O)CC3S2)cc1` (centres undefined) gave VACV Venus inh -10% and Vaccinia mCherry 12%.
`N#C/C(=C\c1c(F)cccc1Cl)c1nn(-c2ccccc2)c(-n2cccc2)c1C#N` gave VACV Venus inh -9% and Vaccinia mCherry -6%.
For Cc1cc(C)c(C#N)c(Cl)n1 the results were VACV Venus inh -1% and Vaccinia mCherry -10%.
For O=C(Nc1ccc(F)cc1F)C1CCN(c2ncccn2)CC1 the results were VACV Venus inh -2% and Vaccinia mCherry -8%.
`COc1ccc(C(=O)NCC(=O)Nc2ccc(-c3ccccc3)cc2)cc1` gave VACV Venus inh -11% and Vaccinia mCherry inactive.
For O=S(=O)(c1ccc(Cl)nc1)N1CCCCC1 the results were VACV Venus inh -11% and Vaccinia mCherry -11%.
For CC[C@@]1(C(=O)OC)N[C@H](CN(C)C(=O)Nc2ccc(C)cc2)[C@@H]2C(=O)N(Cc3ccccc3)C(=O)[C@@H]21 the results were VACV Venus inh -11% and Vaccinia mCherry inconclusive.
`Cc1cccc(C)c1NC(=O)CCCSc1nc2ccccc2s1` gave VACV Venus inh -14% and Vaccinia mCherry -11%.
For CCOC(=O)C(=CNc1ccc(N2CCCCC2)c(S(=O)(=O)Nc2ccccc2OC)c1)C(=O)OCC the results were VACV Venus inh -8% and Vaccinia mCherry -11%.
Screening O=C(CSc1cccc[n+]1[O-])Nc1ccc([N+](=O)[O-])cc1Cl returned VACV Venus inh 4% and Vaccinia mCherry inactive.

2 entries picked at random from the list so far, as already listed:
CC(=O)Nc1ccc(OCc2nnc(-c3ccccc3)o2)cc1 was read as VACV Venus inh 0% and Vaccinia mCherry -14%.
`Cc1cccc(NC(=S)NCCc2ccc3c(c2)OCCO3)c1C` gave VACV Venus inh -3% and Vaccinia mCherry -16%.

(further entries)
Cc1ccc(S(=O)(=O)NCCC(=O)N2CCC(C(N)=O)CC2)cc1C was read as VACV Venus inh -5% and Vaccinia mCherry 0%.
For Cc1ccc2c(c1)N(C(=O)Nc1ccc(Br)cc1F)CCO2 the results were VACV Venus inh -7% and Vaccinia mCherry -11%.
Screening NC(=O)c1ccccc1OC1CCC1 returned VACV Venus inh -9%[7.34 µM] and Vaccinia mCherry inactive[7.34 µM].
CCn1cc(S(=O)(=O)Nc2ccc3c(c2)OCCO3)cn1 was read as VACV Venus inh 1% and Vaccinia mCherry 0%.
For CCCCN(CC(=O)NC(C)(C)C)C(=O)C(=O)Nc1ccc2c(c1)OCCO2 the results were VACV Venus inh -6% and Vaccinia mCherry -9%.
`CCOC(=O)C1=C(CC)Nc2ccccc2N=C1NC(=O)c1ccc(S(=O)(=O)N(C)C)cc1` gave VACV Venus inh inconclusive and Vaccinia mCherry inconclusive.
`O=C(CSc1nnc(NC(=O)NC2CCCCC2)s1)Nc1ccccc1F` gave VACV Venus inh -5%[7.34 µM] and Vaccinia mCherry -5%[7.34 µM].
Screening COc1ccc(C2(NC(C)=O)CCN(C(=O)c3cccs3)CC2)cc1 returned VACV Venus inh -12% and Vaccinia mCherry inactive.
Screening O=C(c1ccco1)N1CCN(CC(=O)N(C2CCCCC2)C2CCS(=O)(=O)C2)CC1 (centres undefined) returned VACV Venus inh 0% and Vaccinia mCherry -8%.
For CCC(C)C(=O)N1CCCC(c2nc(-c3cccs3)no2)C1 (centres undefined) the results were VACV Venus inh -10% and Vaccinia mCherry inactive.
`Cc1cnn(-c2cc(Oc3ccccc3)ncn2)c1` gave VACV Venus inh -14% and Vaccinia mCherry -29%.
For Cc1ccc(OCCCC(=O)NC(C)c2ccccc2)cc1 (centres undefined) the results were VACV Venus inh -9%.
COc1ccc(NC(=O)Cn2c(SCc3cc(C)ccc3C)nc3ccncc32)c(OC)c1OC was read as VACV Venus inh 0% and Vaccinia mCherry -17%.
Cc1ccc(OCC(=O)Nc2ccccc2C(=O)OCc2cc(=O)n3c(C)csc3n2)cc1 was read as VACV Venus inh -17% and Vaccinia mCherry -10%.
Cc1ccc(C(C)(C)C)c(OCCCn2ccnc2)c1 was read as VACV Venus inh -10% and Vaccinia mCherry -15%.
`CC(=O)OCCCNc1cc(Sc2ccc(Cl)cc2)c2nonc2c1[N+](=O)[O-]` gave VACV Venus inh -14% and Vaccinia mCherry -13%.
Screening CCCOc1ccc(CNC(=O)c2ccc3nc(N4CCOCC4)sc3c2)cc1 returned VACV Venus inh -17% and Vaccinia mCherry 12%.
Screening CS(=O)(=O)N1CCC(C(=O)Nc2ccc(C(F)(F)F)cc2)CC1 returned VACV Venus inh -13% and Vaccinia mCherry inactive.
`CCCn1c2c(c(O)c(C(=O)NCc3ccccc3)c1=O)CCCC2` gave VACV Venus inh -17% and Vaccinia mCherry -28%.
For CC1(C(=O)NS(=O)(=O)C2CC2)CCCN(C(=O)c2ccc(F)cc2Cl)C1 (centres undefined) the results were VACV Venus inh -3% and Vaccinia mCherry 13%.

Copied from the results shown, 6 compounds:
`Cc1cnn(-c2cc(Oc3ccccc3)ncn2)c1` gave VACV Venus inh -14% and Vaccinia mCherry -29%.
For Cc1ccc(OCCCC(=O)NC(C)c2ccccc2)cc1 (centres undefined) the results were VACV Venus inh -9%.
COc1ccc(NC(=O)Cn2c(SCc3cc(C)ccc3C)nc3ccncc32)c(OC)c1OC was read as VACV Venus inh 0% and Vaccinia mCherry -17%.
Cc1ccc(OCC(=O)Nc2ccccc2C(=O)OCc2cc(=O)n3c(C)csc3n2)cc1 was read as VACV Venus inh -17% and Vaccinia mCherry -10%.
Cc1ccc(C(C)(C)C)c(OCCCn2ccnc2)c1 was read as VACV Venus inh -10% and Vaccinia mCherry -15%.
`CC(=O)OCCCNc1cc(Sc2ccc(Cl)cc2)c2nonc2c1[N+](=O)[O-]` gave VACV Venus inh -14% and Vaccinia mCherry -13%.

Further structures
For O=C(CCc1nc2ccccc2s1)N1CCN(c2ccccc2)CC1 the results were VACV Venus inh -3% and Vaccinia mCherry -3%.
`c1ccc(N2CCN(c3ncnc4c3nc3n4CCCCC3)CC2)cc1` gave VACV Venus inh inconclusive and Vaccinia mCherry inconclusive.
Screening Cc1cccc(C(=O)Nc2ccc(S(=O)(=O)N3CCCCC3c3cccnc3)cc2)c1 (centres undefined) returned VACV Venus inh -3% and Vaccinia mCherry -7%.
For O=C(COC(=O)c1ccc2c(c1)OCCO2)NCc1ccc(Cl)cc1 the results were VACV Venus inh -22% and Vaccinia mCherry inactive.
O=C(NCC(c1ccco1)N1CCc2ccccc21)c1ccccc1Cl (centres undefined) was read as VACV Venus inh -18% and Vaccinia mCherry inactive.
CC(=O)Nc1c(Cl)cc2c(c1Cl)Cc1cc(N)ccc1-2 was read as VACV Venus inh -21% and Vaccinia mCherry inconclusive.
COc1ccc(CCNC(=O)CCc2ccccc2O)cc1OC was read as VACV Venus inh 4% and Vaccinia mCherry -26%.
O=C(O)c1cccc(S(=O)(=O)Nc2ccccc2Cl)c1 was read as VACV Venus inh -4% and Vaccinia mCherry -11%.
Screening CCOC(=O)N1CCC(NS(=O)(=O)c2ccc(C)cc2)CC1 returned VACV Venus inh -22% and Vaccinia mCherry -6%.
Screening O=C(O)c1ccnc(C(=O)O)c1 returned VACV Venus inh -4% and Vaccinia mCherry inconclusive.
